Rce1 inhib = yeast Ras-converting enzyme inhibition. Q03530. yeast membranes, quenched prenylated peptide cleavage fluorescence. calls only. hit rate 0.27% among 290,000. AID 2563;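 active means fall in fluorescence gain of 50% or more versus controls, with final raw signal at or below 3038400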;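 further: plate controls were neutral control wells for no effect and wells lacking membranes for full effect; tested at 10 µM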
Target sequence (Q03530 whole entry, looked up): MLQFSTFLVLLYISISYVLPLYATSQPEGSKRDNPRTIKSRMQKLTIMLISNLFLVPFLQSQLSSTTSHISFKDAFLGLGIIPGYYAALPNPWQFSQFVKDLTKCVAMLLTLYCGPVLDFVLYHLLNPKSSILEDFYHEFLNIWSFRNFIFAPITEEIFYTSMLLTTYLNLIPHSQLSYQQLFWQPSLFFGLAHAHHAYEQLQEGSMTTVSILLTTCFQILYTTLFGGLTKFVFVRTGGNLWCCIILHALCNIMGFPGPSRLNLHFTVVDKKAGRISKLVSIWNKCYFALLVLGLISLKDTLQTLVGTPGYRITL
Env fusion inh = inhibitors of HIV Env-mediated cell fusion. HeLa-JRFL Env/CEM21 cell fusion, luciferase. inhibition, % at 12.3 µM. hit rate 1.1% among 360,000. AID 651610;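 active means mean replicate inhibition score of at least 50 and every replicate individually at or above 50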;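 further: 0% = plate neutral controls and 100% = maraviroc near 300 nM; one replicate is shown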
PABP FP inh = PABP-poly(A) binding inhibition. P11940. PABP-poly(A) RNA binding, fluorescence polarization. inhibition, % at 35 µM. hit rate 1% among 290,000. AID 2014;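 active means 50% or more with normal probe brightness, or confirmed in later tests; about a fifth of its hits are not listed in these tables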;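 further: calls also rest on retests at 20 µM and on dose response follow-up; controls were probe without protein and protein plus probe with vehicle; some compounds called inactive have numbers as strong as hits; many hits fall short of the cut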
eIF4H inh = inhibitors of RNA binding by human eIF4H | eIF4H fluorescence polarization binding assay | inhibition, % at 35 µM | hit rate 0.94% among 290,000;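 active means 50% or more with normal probe brightness, or confirmed in later tests; about a fifth of its hits are not listed in these tables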;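 further: calls also rest on retests at 20 µM and on dose response follow-up; 0% = protein and probe with vehicle and 100% = probe without protein; strong numbers were not always called active; many hits fall short of the cut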
MT1-MMP act inh = inhibitors of human MT1-MMP activation; hit rate 0.061% among 360,000; P50281; GFP/RFP ratio change, % at 20 µM; HT1080 RFP-PRO-GFP cells, GFP/RFP ratio fluorescence, overnight; percent of plate control window, DMSO zero;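 active means GFP/RFP ratio change of at least 30% with cell ATP level not reduced by more than half and red fluorescence within 50% of control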; further: strong numbers were not always called active
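Compound: 20 µM single dose, 1% DMSO / System: HT1080 RFP-PRO-GFP cells / Controls: DMSO and RFP-L50D-GFP cell wells / Read-out basis: GFP/RFP fluorescence ratio / Schedule: overnight compound exposure at 37 °C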
Yeast UUG start = alters start codon recognition fidelity in yeast; AID 602363; activity score, % at 18.7 µM; hit rate 0.13% among 350,000; S. cerevisiae UUG-firefly luciferase reporter, luminescence/redox ratio;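 active means replicate mean at a twofold rise or more, about +100% in these data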;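 further: firefly luciferase made from a UUG start codon reports start codon fidelity; reporter light over untreated wells divided by growth signal over untreated wells; some hits fall short of that in this replicate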
CSC inhib = cancer stem cell inhibition; cancer stem cell-like cells viability, luminescence; hit rate 1.1% among 300,000; inhibition, % at 7.5 µM;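 active means mean at 75% or more and at least half the replicates too; tested in HMLE shEcad cells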;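 further: 0% = median of negative and 100% = median of positive control wells; the first replicate is given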
eIF4H inh retest = recorded beside eIF4H inh, whose call it bears; inhibition, %; compound at 20 µM; confirmation average;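 mean of two retest wells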
PABP FP inh retest = also measured in PABP FP inh; calls as there; inhibition, %; compound at 20 µM; confirmation repeats;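 mean of two retest wells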
MT1-MMP act inh RFP = also measured in MT1-MMP act inh; calls as there; RFP signal change, %; measured here: RFP expression control read;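 0 = vehicle wells; hits needed this value within 50% of zero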
The depositor's hits bear a star; i = inactive; x = no result given. An excerpt. The share of hits here may be higher or lower than overall.

SMILES	Rce1 inhib	Env fusion inh	PABP FP inh	eIF4H inh	MT1-MMP act inh	MT1-MMP act inh RFP	Yeast UUG start	CSC inhib	others
CCOC(=O)C1(C)CCN1C(=O)c1ccccc1OC(F)(F)F (configuration not stated)	x	20	x	x	1	5	-7	x
O=C(NCCN1CCOCC1)c1ccc(F)cc1	i	x	-3	-13	3	2	-35	-8
CCCSc1nc(N)c(C#N)c(-c2ccc(C)cc2)c1C#N	i	x	-4	-2	6	-1	-20	-7
CCN1C(=O)[C@H]2[C@@H](c3ccc(-c4ccc(OC)cc4)cc3)N3CCC[C@@]3(C(=O)OC)[C@H]2C1=O	i	-25	x	x	-3	-8	-1	-8
O=C1c2ccsc2SCCN1Cc1cccc(F)c1	i	1	-3	5	-3	-2	-6	-2
CCCCn1c(SCC(=O)Nc2cc(C)on2)nc2ccsc2c1=O	i	26	-9	-8	-1	0	-8	11
CCn1cc(CNC(=O)CC2C(=O)NCCN2CC(c2ccccc2)c2ccccc2)cn1 (configuration not stated)	i	13	20	44	-3	-1	x	-6
COc1ccc(OC)c(C(=O)CSc2nnnn2C)c1	x	14	-1	-9	2	4	-16	6
CN(c1ccccc1C(=O)Nc1ccc(F)c(Cl)c1)S(C)(=O)=O	i	14	-4	-11	-3	-2	-2	-11
O=[N+]([O-])c1ccc(NNS(=O)(=O)c2cc(Cl)ccc2Cl)nc1	i	-10	-10	-13	-2	1	-12	-3
N#CCSc1nnc(C2CCCCC2)n1Cc1ccccc1	i	-36	0	-1	4	5	-23	-1
CCOC(=O)C1=C(C)N(C)C(C)=C(C(=O)OCC)C1c1ccncc1	i	28	-14	5	10	1	-16	-3
O=C(CCC(=O)CCN1CCCCC1)CCN1CCCCC1	i	-44	26	23	2	4	11	-13
Cc1cccc(-c2nnnn2-c2cccc(C)c2)c1	i	-10	12	3	0	-3	x	-14
CCOc1ccc(/C=N/Nc2nc(C)cs2)c(O)c1	i	-74	6	0	5	-1	-30	-12
CN(CCc1ccccc1)C(=O)c1ccc(NC(=O)Cc2cccc(NC(=O)C3CCN(C(=O)C4CCC4)CC3)c2)cc1	x	-3	x	x	1	-4	-5	x
CCc1ccc2oc(=O)cc(CN3CCCCC3C)c2c1 (configuration not stated)	i	12	10	2	-4	-5	-16	-13
O=C(c1ccncc1)N1CCN(S(=O)(=O)c2ccccc2F)CC1	x	-8	x	x	2	4	x	-5
COc1cccc(CNC(=O)c2cc(=O)[nH]c3ccc(S(=O)(=O)N4CCOCC4)cc23)c1	x	1	x	x	0	-2	-14	3
CNC(=S)N1CCc2sccc2C1C (configuration not stated)	i	-13	-5	4	3	6	x	-12
COc1ccc(CCNC(=O)CC2Nc3cc(C)c(C)cc3NC2=O)cc1OC (configuration not stated)	i	-19	10	6	0	5	3	1
O=C(NCCCn1cccn1)c1cc(COc2ccccc2)on1	x	-79	x	x	1	3	-10	x
Oc1c(C=Nc2cccc3cccnc23)sc2ccccc12	i	-9	119*	125*	x	x	x	33	eIF4H inh retest=68*;PABP FP inh retest=70*
CS(=O)(=O)N1CCc2cc(-c3csc(NC(=O)Cc4cccs4)n3)ccc21	i	76*	-4	0	0	-20	-2	46
O=S(=O)(c1ccc(N2CCCC2)nc1)N1CCOCC1	i	x	-9	-2	-24	3	-3	-7
CCOc1ccc(CNn2cnnc2)cc1	x	6	-4	-2	5	2	-6	-5
COc1ccc(S(=O)(=O)N2CCC(C(=O)NCC3CCCO3)CC2)cc1OC (configuration not stated)	i	1	-10	-4	-2	0	x	0
O=C(NCCNC(=O)c1cccc(O)c1)c1cccc(O)c1	i	2	-2	4	-2	-3	-1	-3
COc1ccc(C(=O)/C=C/Nc2ccc(S(=O)(=O)Nc3cc(OC)nc(OC)n3)cc2)c(OC)c1	i	12	8	1	-8	4	-11	29
COc1ccc(C2CC(C(F)(F)F)n3ncc(C(=O)NCc4cccnc4)c3N2)cc1OC (configuration not stated)	i	-31	0	2	0	0	-11	-5
O=C1S/C(=C/c2ccccc2F)C(=O)N1CCN=C1NS(=O)(=O)c2ccccc21	i	11	2	6	0	-2	-2	-2
O=C(c1ccc(-c2cccc(Cl)c2)o1)N1CCN(c2ccc([N+](=O)[O-])cc2)CC1	i	3	-3	0	2	1	x	3
Cc1cccc(-n2c(C)c(-c3ccccc3)[nH]c2=S)c1	i	15	-1	-7	5	-4	-19	-12
Fc1ccccc1Cc1noc(CN2CCN(C/C=C/c3ccccc3)CC2)n1	i	-7	-8	-12	-2	-6	-4	-6
CN(Cc1ccc(OC(F)F)cc1)C(=O)C1CCN(S(=O)(=O)c2ccc3c(c2)OCCO3)CC1	x	x	x	x	-6	-22	1	-9
CCc1cc(=O)oc2cc(OCC(=O)OC)c(Cl)cc12	i	-59	-7	-5	11	1	-8	-15
Cc1csc(NC(C)c2nc3cc(Cl)c(Cl)cc3n2CCCO)n1 (configuration not stated)	i	16	x	x	0	-6	-23	0
CCNC(=S)NNC(=O)c1ccncc1	x	2	8	8	2	2	x	4
Cc1cccc(C)c1NC(=O)CN(C)C(=O)c1cccc(S(=O)(=O)N2CCN(C)CC2)c1	i	14	x	x	1	1	x	-14
CC(=O)C1=C(C)Nc2ncnn2C1c1cccc(OCc2ccccc2)c1 (configuration not stated)	i	6	-12	4	0	-8	-10	5
Cc1cc(C(=O)OCC(=O)NC2CC2)ccc1[N+](=O)[O-]	x	x	x	x	2	-2	-15	-14
Cn1c(COc2ccccc2)nnc1SCc1nc2ccccc2[nH]1	i	x	-2	0	1	3	-15	-11
CCc1[nH]nc2c1C(c1ccc(C)o1)C(C#N)=C(N)O2 (configuration not stated)	i	8	0	3	-3	3	x	-12
CCOc1ccc(NC(=O)Nc2ccccc2SC)cc1	i	-80	-12	-9	2	-1	x	13
CC(C)(C)OCC(NC(=O)C(CC(N)=O)NC(=O)OC(C)(C)C)C(=O)OC(C)(C)C (configuration not stated)	x	-2	4	0	-3	-2	-17	x
O=C(COc1coc(CN2CCN(c3ccccc3)CC2)cc1=O)NC1CCCC1	i	x	x	x	-3	-1	-9	-13
Cc1cc(C)c(NC(=O)CSc2nc(=O)n(CCN3CCOCC3)c3c2CCC3)c(C)c1	i	-5	x	x	-2	-2	-11	-11
CCOC(=O)CN1C(=O)C(O)=C(C(C)=O)C1c1ccccc1 (configuration not stated)	i	x	3	-10	2	0	-17	3
Cc1ccnc2nc(C(=O)OCC(=O)N3CC(C)CC(C)C3)nn12 (configuration not stated)	x	-9	x	x	1	4	2	x
Cc1cc(C)c2c(c1)c1nnc(SCCN3CCCCC3)nc1n2C	i	-25	-10	-9	6	1	-12	x
CCN(C(=O)c1cc(Cl)ccc1OC)C1CCCCC1	i	10	-11	2	-4	0	-7	-4
COCc1cc(C)nc(SCC(=O)Nc2cccc3cccnc23)c1C#N	i	15	-16	-19	5	4	-6	-1
COc1ccc(Cl)cc1NC(=S)NCCc1c[nH]c2ccccc12	i	1	4	-6	7	0	-21	27
CC(NC(=O)C1CCCC1)C1CC2CCC1C2 (configuration not stated)	i	-4	-6	-10	2	7	x	-9
CC(C)Sc1nnc(NC(=O)CCc2ccccc2)s1	i	2	3	-10	1	-3	x	2
O=C(Nc1nccs1)Oc1ccccc1	x	-48	5	-8	-6	3	-2	-6
COc1cc(S(=O)(=O)N2CCN(c3ccc(F)cc3)CC2)ccc1Cl	i	-16	4	-1	2	1	-19	1
Nn1cnnc1SCC(=O)N(C1CCCCC1)C1CCCCC1	i	1	0	3	-7	-5	x	5
O=C(N/N=C/c1cc2c(c([N+](=O)[O-])c1)OCO2)c1ccncc1	i	-9	8	19	1	8	-14	-2
O=C1CCN(CCCN2CCC(=O)N(Cc3ccccc3)C2=S)C(=S)N1Cc1ccccc1	x	18	x	x	1	-7	-25	x
Additional structures:
SMILES	Rce1 inhib	Env fusion inh	PABP FP inh	eIF4H inh	MT1-MMP act inh	MT1-MMP act inh RFP	Yeast UUG start	CSC inhib	others
COc1ccc(NC(=O)CS(=O)CC(=O)NC2CCCc3ccccc32)cc1 (configuration not stated)	i	-68	-3	-6	0	2	-17	-4
COc1ccc(NC(=O)c2nnn(CC(=O)Nc3ccc4c(c3)OCO4)c2N)cc1OC	i	7	-6	3	0	0	-20	-10
COc1ccc(NC(=O)NC23CC4(C)CC(C)(CC(C)(C4)C2)C3)cc1OC	i	26	-8	6	-12	-15	-15	29
CCc1cccc(C)c1NC(=O)C1CCCO1 (configuration not stated)	i	x	15	-9	1	3	-12	x
O=[N+]([O-])c1cc(S(=O)(=O)NCCc2ccccn2)ccc1Cl	x	14	x	x	0	0	-20	-19
COc1cc(C2Nc3ccc4ncccc4c3C3=C2C(=O)CCC3)cc(OC)c1OC (configuration not stated)	i	11	-8	-4	0	-3	x	-5
CSc1ncccc1C(=O)OCC(=O)NC1CCC(C)CC1 (configuration not stated)	x	x	x	x	2	1	0	-13
CCCCn1c(N)c(N(CC)C(=O)C2=COCCO2)c(=O)[nH]c1=O	i	5	x	x	3	5	-18	x
COc1ccc(/C(C)=N/NC(=S)NCCc2ccccc2)cc1	i	8	0	2	5	-2	x	x
CC(=O)C(Cc1ccccc1)NC(=O)CCl (configuration not stated)	i	20	-13	-9	4	2	x	x
O=S(=O)(NCc1ccccc1)c1ccc(NC(=S)NCc2ccco2)cc1	i	-2	-1	6	0	-9	-13	x
COc1ccc(C2c3c(oc4ccccc4c3=O)C(=O)N2CC2CCCO2)cc1 (configuration not stated)	i	x	-4	0	-1	7	x	-15
COCCn1c(CN2CCN(C(=O)c3ccco3)CC2)nc2c1c(=O)n(C)c(=O)n2C	i	4	10	-1	3	3	-15	2
COCCCn1c(C)c(C(C)=O)cc(NC(=O)c2ccccc2)c1=O	i	3	2	-4	1	3	x	-7
CCCc1[nH]n(-c2ccc([N+](=O)[O-])cc2)c(=O)c1C=NCCN1CCNCC1	i	x	14	1	x	x	x	-3
COc1ccc(CCNC(=O)COC(=O)c2ncc(Cl)c(Cl)c2Cl)cc1OC	x	-3	x	x	-2	1	-5	x
OCCN(CCO)CC(O)Cn1c2ccccc2c2ccccc21 (configuration not stated)	i	x	10	6	0	2	x	4
CCCOc1ccc(C(=O)NNC(=O)c2cccc(S(=O)(=O)N3CCN(C(C)=O)CC3)c2)cc1OC	i	-9	x	x	1	3	x	-4
Cc1ccc(S(=O)(=O)CC(=O)NC(C)(C)C)cc1	i	-37	7	-1	5	4	-2	-16
O=C(CCl)NCCNC(=O)c1cc(OCC(F)(F)F)ccc1OCC(F)(F)F	i	33	-1	0	-2	-3	x	-7
COc1ccc(N(CC(=O)Nc2cc(C)ccc2C)S(=O)(=O)c2c(C)[nH]c(=O)[nH]c2=O)cc1	i	0	x	x	2	6	2	-4

Five entries out of the list, arranged by molecular weight, smallest number first:
SMILES	Rce1 inhib	Env fusion inh	PABP FP inh	eIF4H inh	MT1-MMP act inh	MT1-MMP act inh RFP	Yeast UUG start	CSC inhib	others
COCCCn1c(C)c(C(C)=O)cc(NC(=O)c2ccccc2)c1=O	i	3	2	-4	1	3	x	-7
CCCc1[nH]n(-c2ccc([N+](=O)[O-])cc2)c(=O)c1C=NCCN1CCNCC1	i	x	14	1	x	x	x	-3
COCCn1c(CN2CCN(C(=O)c3ccco3)CC2)nc2c1c(=O)n(C)c(=O)n2C	i	4	10	-1	3	3	-15	2
COc1ccc(N(CC(=O)Nc2cc(C)ccc2C)S(=O)(=O)c2c(C)[nH]c(=O)[nH]c2=O)cc1	i	0	x	x	2	6	2	-4
CCCOc1ccc(C(=O)NNC(=O)c2cccc(S(=O)(=O)N3CCN(C(C)=O)CC3)c2)cc1OC	i	-9	x	x	1	3	x	-4
